Bioassay records: PubChem, Southern Research Institute
Mtb H37Rv = Mycobacterium tuberculosis H37Rv growth inhibition, putative kinase inhibitor library, confirmatory dose response (AID 2842). M. tuberculosis H37Rv growth inhibition; higher % means a stronger effect; some inactives read as strong as hits. inhibition, % at 10 µg/mL, or IC90 in µg/mL where a hit was titrated. 24,000 tested, 5.2% active;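 active = confirmed in a dose series; inconclusive = mostly over 85% at the one dose but not retested; inactive = below 85% or not confirmed; about a fifth of its hits are not listed in these tables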;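 also: bacteria incubated one week before Alamar blue readout; 0% = bacteria only wells and 100% = bacteria with high antibiotic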
* marks the source's active call; other numbers are inactive results; ? = inconclusive. Not all compounds are listed; the hit share may differ from the screen's.

SMILES	Mtb H37Rv
Cc1ccc(-n2c(=O)[nH]c3c(C(N)=O)nc(-c4sccc4C)nc32)cc1C	1%
Cc1nc(C#N)c(N/N=C/C=C/c2ccccc2)o1	11%
Cc1csc2ncc(C(=O)Nc3cccc(C(F)(F)F)c3)c(=O)n12	-6%
O=C(Nc1ccc(Br)cc1C(=O)c1ccccc1Cl)c1ccc(S(=O)(=O)N2CCCC2)cc1	0%
Cc1cccc(NC(=O)CSc2nnc(Cn3c(=O)sc4ccccc43)n2C)c1C	-2%
O=C(CCNC(=O)c1ccccc1Br)N=Nc1c(O)[nH]c2ccccc12	-18%
Cc1c(C)c2ccc(OC(C)C(=O)c3ccccc3)cc2oc1=O (stereo unspecified)	-9%
CC(O)CNc1ncnc(N)c1[N+](=O)[O-] (stereo unspecified)	2%
Cc1cccc(NC(=O)COc2cccc3c2CCN(Cc2cccnc2)C3=O)c1	3%
COc1ccc2nc(-c3ccc(C)c(NS(=O)(=O)c4ccc(OC)c(F)c4)c3)cn2n1	1%
CCCCC1CCC(C(=O)Nc2c3c(nn2C(C)(C)C)CS(=O)C3)CC1 (stereo unspecified)	1%
Cc1ccc(C)c(NC(=O)COC(=O)c2ccc3c(c2)C(=O)N(c2ccccc2Cl)C3=O)c1	10%
CCS(=O)(=O)c1ccccc1C(=O)Nc1ccc2nc(C)sc2c1	-1%
O=C(Cc1n[nH]c(=O)[nH]c1=O)N/N=C/c1cccc(O)c1	-19%
CCc1cc2c(SCC(=O)Nc3ccc(Cl)cc3)ncnc2s1	0%
CC(=O)N1CCc2c(sc(NC(=O)c3cccc(Cl)c3)c2C(N)=O)C1	10%
CC1=C(C(=O)OC2CCCCCC2)C(c2ccccc2I)NC(=O)N1C (stereo unspecified)	6%
O=C(Nc1cc(C(F)(F)F)ccc1Cl)c1cnc2n(c1=O)CCS2	17%
Cc1cc(=O)[nH]c2nnc(SCC(=O)NC(C)C)n12	-4%
O=C(N/N=C/c1ccco1)c1cc(Br)ccc1O	74%
CN(C)CCCNc1ncnc2c1cnn2-c1ccc(Cl)cc1	7%
O=C(Nc1sc2c(c1-c1nc3ccccc3s1)CCCC2)c1ccccc1Cl	2%
O=c1cnnc(N/N=C/c2c(O)ccc3ccccc23)[nH]1	<0.2µg/mL*
CCc1cc2c(=O)c(-c3csc(C)n3)coc2cc1OC(C)C(=O)O (stereo unspecified)	28%
Cc1ccc(NC(=O)c2oc3ccccc3c2NC(=O)CC(c2ccccc2)c2ccccc2)cc1C	-6%
COc1cccc(-c2ccc(SCC(=O)NCc3ccco3)nn2)c1	32%
Cc1cc(Cl)ccc1OCC(=O)Nc1ccc(S(=O)(=O)Nc2onc(C)c2C)cc1	-2%
O=C(Nc1cccc(-c2cn3c(n2)SCC3)c1)c1cc2ccccc2oc1=O	-6%
CCOc1ccc(C(=O)NCCc2cc3ccc(OC)cc3[nH]c2=O)cc1	2%
C=CCn1c(SCC(=O)Nc2ccc3c(c2)OCCO3)nc2scc(-c3ccco3)c2c1=O	-6%
COc1ccc(NC(=O)c2oc3ccccc3c2NC(=O)c2ccc(Cl)cc2)cc1	4%
Cc1ccc(CSc2nc3c([nH]c4ccccc43)c(=O)n2-c2ccc(C)cc2)cc1	55%
O=C(Nc1cccc(-c2ccc3nnc(-c4cccnc4)n3n2)c1)c1ccc(F)cc1F	28µg/mL*
CCOC(=O)c1nn(-c2ccccc2F)c(=O)c2c(NC(=O)c3cccs3)scc12	-5%
COCCn1c(CN2CCN(Cc3ccccc3)CC2)nc2c1c(=O)[nH]c(=O)n2C	11%
Cc1ccc(-c2nnc(NC(=O)c3cc4ccccc4oc3=O)o2)c(C)c1	1.4µg/mL*
NC(=O)c1c(NC(=O)C2COc3ccccc3O2)sc2c1CCCC2 (stereo unspecified)	-11%
COC(=O)c1cccc(Nc2nc(C)cc(=O)[nH]2)c1	-3%
COc1ccc2oc(=O)c(/C(N)=N/NC(=O)c3ccncc3)cc2c1	84%
CC(=O)C(C)n1c(=O)c2c(nc3n(-c4ccccc4F)c(C)cn23)n(C)c1=O (stereo unspecified)	0%
CCOc1ccc(C(=O)Nc2nnc(-c3ccc(C)cc3)s2)cc1	12%
COC(=O)c1cc(OC)c(OC)cc1NC(=O)c1cc2ccccc2oc1=O	2%
CCCCCn1c(O)c(/C=C2\C=NN=C2c2ccccc2)sc1=S	12%
CC12CC(NC(=O)N1c1cccc(C(=O)O)c1)c1cc(Br)ccc1O2 (stereo unspecified)	-11%
Cc1ccc(OCc2occc2C(=O)Nc2nccs2)cc1	7%
O=C(NCc1ccc(Cl)cc1)NC1CC(=O)N(c2ccc3c(c2)OCCO3)C1 (stereo unspecified)	20%
O=C(CSc1ccc2nnc(CCNC(=O)c3ccc(F)cc3)n2n1)NC1CCCCC1	-7%
O=C(Nc1nc(-c2nc3ccccc3s2)cs1)c1ccc(Cl)cc1	0%
COc1ccc(-n2ccnc(SCc3ccc(Cl)cc3)c2=O)cc1	-3%
O=c1[nH]c(O)c(/C=N/c2nccs2)c(=O)[nH]1	-6%
Next section
SMILES	Mtb H37Rv
Cc1ccc(C)c(Nc2nc(N3CCN(c4ccccc4)CC3)nc3nccnc23)c1	0%
O=C(Nc1nnc(-c2ccc3c(c2)CCCC3)o1)c1ccc(Cl)cc1Cl	0.91µg/mL*
CC(/C=N/NC(=O)CCc1n[nH]c(=O)[nH]c1=O)=C\c1ccccc1	9%
COc1cc([N+](=O)[O-])ccc1NC(=O)c1cnc2n(c1=O)CCS2	5%
O=C(CCCC1=NS(=O)(=O)c2ccccc2N1)OCc1ccc(F)cc1	1%
O=c1[nH]c(NNC(=S)Nc2ccccc2)nc2sc3c(c12)CCCC3	3%
CC(C)Oc1ccc(C(=O)Nc2nnc(-c3cc(Cl)ccc3Cl)o2)cc1	14µg/mL*
O=C(COc1ccc(Cl)cc1Cl)Nc1nnc(-c2ccncc2)o1	-8%
COc1ccc(OC)c2[nH]c(=O)c(CCNC(=O)c3ccccc3C(F)(F)F)cc12	3%
O=C(CSc1nncc(=O)[nH]1)Nc1ccc(F)cc1F	-4%
O=C(Nc1ccc2oc(-c3ccc(F)cc3)cc(=O)c2c1)c1ccncc1	-5%
COc1cccc(C(=O)Nc2c(C(=O)Nc3ccc4c(c3)OCO4)oc3ccccc23)c1OC	-5%
COC(=O)C(C)n1cnc2c(nnn2-c2ccc(F)cc2)c1=O (stereo unspecified)	-5%
Cc1ccc(-n2ncc3c(=O)n(CC(=O)Nc4cccc([N+](=O)[O-])c4)cnc32)cc1C	2%
O=C(Nc1c(C(=O)Nc2ccc3c(c2)OCCO3)oc2ccccc12)c1cc2ccccc2o1	2%
CCCc1cc(=O)[nH]c2nnc(SCC(=O)N(CC)CC)n12	0%
O=C(CC12CC3CC(CC(C3)C1)C2)Nc1nnc(-c2ccc(Cl)cc2Cl)s1	2%
COc1ccc(SCCC(=O)Nc2nc(-c3cccnc3)cs2)cc1	1%
NC(=O)COc1ccc2cc(-c3ccc(Cl)cc3)c(=O)oc2c1	1%
COCCn1c(=S)[nH]c2cc(C(=O)NCCC3=CCCCC3)ccc2c1=O	-2%
COC(=O)c1c(NC(=O)/C(C#N)=C/c2cccs2)sc(C)c1C	-2%
CCc1ccc(NC(=O)CSc2nnc(CCC(=O)O)c(=O)[nH]2)cc1	-15%
O=C(COc1ccc(Cl)cc1)Nc1cc2c3c(c1)CCC(=O)N3CCC2	12%
CCOc1ccc(C(=O)Nc2c(N)nc(SCC(=O)N3CCOCC3)[nH]c2=O)cc1	-3%
COC(=O)c1ccc(C(=O)NC(=S)Nc2sc3c(c2C#N)CCCC3)cc1	-9%
Cc1ccc(-n2ncc3c(=O)n(CC(=O)NCCc4ccccc4)cnc32)cc1C	7%
COc1ccc(C2C(C(=O)c3ccc(C)o3)=C(O)C(=O)N2c2cc(C)on2)cc1OC (stereo unspecified)	-11%
CCc1ccc(-c2nnc3c4cc(OC)c(OC)cc4n(Cc4cccc(OC)c4)cc2-3)cc1	1%
Cc1ccc(C)c(NC(=O)CSc2ccc3nnc(-c4ccc(Cl)cc4)n3n2)c1	5%
CCOC(=O)c1nn(-c2ccccc2)c(=O)c2c(NC(=O)c3cc(Cl)ccc3Cl)scc12	-12%
CSC1=C(C#N)C2(CCCCC2)C(c2nc(-c3ccc(C)cc3)cs2)C(N)=N1 (stereo unspecified)	60%
CCOC(=O)c1nn(-c2ccc(OC)cc2)c(=O)c2c(NC(=O)CC(C)(C)C)scc12	33%
COc1ccc(CCNc2nncc(=O)[nH]2)cc1OC	0%
CC1C(=O)N2CCCc3cc(S(=O)(=O)Nc4ccc(F)cc4)cc1c32 (stereo unspecified)	-7%
CCOC(=O)c1cc(NC(=O)CSc2nnc3cc(C)c4ccccc4n23)cc(C(=O)OCC)c1	0%
Cc1n[nH]c(=O)nc1N/N=C/c1ccccc1C(=O)O	0%
CCOC(=O)c1nn(-c2ccccc2)c(=O)c2c(NC(=O)c3cccc(Cl)c3)scc12	-18%
Cn1c(=O)c2c(SCc3cccc(F)c3)nc(-c3ccco3)nc2n(C)c1=O	-1%
COc1cccc2c(=O)n(CC(=O)Nc3ccccc3)ccc12	0%
CCOC(=O)c1oc2ccccc2c1NC(=O)c1ccc(OCC)cc1	6%
CC1CCc2c(sc(NC(=O)c3ccc(S(=O)(=O)N4CCCCC4C)cc3)c2C(N)=O)C1 (stereo unspecified)	22%
COc1ccc(-c2nnc3ccc(SCC(=O)Nc4nc5ccccc5s4)nn23)cc1	-13%
Fc1ccc2nc(Nc3nnc(-c4ccco4)o3)sc2c1	?
O=C(Nc1cccnc1)c1ccc(S(=O)(=O)NC2CC2)cc1	7%
c1ccc2sc(-c3c(Nc4nc5cc6c(cc5s4)OCO6)sc4c3CCCC4)nc2c1	6%
O=C(CC1Nc2ccccc2NC1=O)Nc1ccc(Cl)cc1 (stereo unspecified)	-5%
Nc1nc(SCC(=O)Nc2ccc(F)cc2)[nH]c(=O)c1NC(=O)c1ccc(Cl)cc1	-13%
O=C1NC(=S)NC(=O)C1=Cc1ccco1	-6%
O=C(CSc1nnc(NC(=O)c2ccc(C(=O)c3ccccc3)cc2)s1)Nc1nccs1	-15%
CCc1ccccc1NC1=C(Cl)C(=O)N(c2ccccc2)C1=O	-6%

Next section, overlapping the part above by 3 compounds.
SMILES	Mtb H37Rv
O=C1NC(=S)NC(=O)C1=Cc1ccco1	-6%
O=C(CSc1nnc(NC(=O)c2ccc(C(=O)c3ccccc3)cc2)s1)Nc1nccs1	-15%
CCc1ccccc1NC1=C(Cl)C(=O)N(c2ccccc2)C1=O	-6%
CCOC(=O)c1nn(-c2ccc(Cl)cc2)c(=O)c2c(NC(=O)CC(C)(C)C)scc12	1%
CCOC(=O)C1=C(C)NC(=O)NC1c1ccc(-c2ccccc2[N+](=O)[O-])o1 (stereo unspecified)	0%
COCC(=O)Nc1c(C(=O)Nc2ccc(F)c(Cl)c2)oc2ccccc12	-5%
Clc1cccc(CSc2nnc3ccc(-c4ccncc4)nn23)c1	-4%
COc1ccc2nc(-c3ccc(F)c(NC(=O)c4ccccc4C)c3)cn2n1	-5%
Cc1cc(C)c2sc(N3CCCC3)nc2c1	1.8µg/mL*
COc1ccc(OC)c(-c2nnc(NC(=O)CSc3nncn3C)s2)c1	13%
COc1cc(/C=N\NC(=O)c2sc(N)nc2C)cc(Br)c1O	-2%
Cc1nc2ccc(NC(=O)Nc3cccc(Cl)c3)cc2s1	22µg/mL*
Cn1c(SCC(=O)NCc2ccc3c(c2)OCO3)nnc1-c1c[nH]c2ccccc12	-10%
O=C(Nc1nnc(-c2ccncc2)o1)c1cccc(Br)c1	78%
CC(=O)COc1ccc2c(-c3cc4cc(Cl)ccc4oc3=O)cc(=O)oc2c1	-9%
O=C(Nc1cc(S(=O)(=O)C(F)(F)F)ccc1Cl)c1cccnc1	-14%
S=C(NCc1ccccc1)NNc1nc(N2CCOCC2)nc(N2CCOCC2)n1	-9%
C=CCn1c2c(c(=O)[nH]c1=O)C(c1ccc(F)cc1)C1=C(COC1=O)N2 (stereo unspecified)	6%
COc1ccc(Cl)c2sc(N3CCN(C(=O)C4COc5ccccc5O4)CC3)nc12 (stereo unspecified)	-16%
CC(=O)Nc1ccc(NC(=O)NC2CC(=O)N(c3ccc4c(c3)OCCO4)C2)cc1 (stereo unspecified)	1%
COc1cccc(CNc2nc3c(S(=O)(=O)c4ccc(C)c(C)c4)nnn3c3ccccc23)c1	-5%

Structural class: the entries above with a thiophene ring, fused or not
SMILES	Mtb H37Rv
Cc1ccc(-n2c(=O)[nH]c3c(C(N)=O)nc(-c4sccc4C)nc32)cc1C	1%
CCc1cc2c(SCC(=O)Nc3ccc(Cl)cc3)ncnc2s1	0%
CC(=O)N1CCc2c(sc(NC(=O)c3cccc(Cl)c3)c2C(N)=O)C1	10%
O=C(Nc1sc2c(c1-c1nc3ccccc3s1)CCCC2)c1ccccc1Cl	2%
C=CCn1c(SCC(=O)Nc2ccc3c(c2)OCCO3)nc2scc(-c3ccco3)c2c1=O	-6%
CCOC(=O)c1nn(-c2ccccc2F)c(=O)c2c(NC(=O)c3cccs3)scc12	-5%
NC(=O)c1c(NC(=O)C2COc3ccccc3O2)sc2c1CCCC2 (stereo unspecified)	-11%
O=c1[nH]c(NNC(=S)Nc2ccccc2)nc2sc3c(c12)CCCC3	3%
COC(=O)c1c(NC(=O)/C(C#N)=C/c2cccs2)sc(C)c1C	-2%
COC(=O)c1ccc(C(=O)NC(=S)Nc2sc3c(c2C#N)CCCC3)cc1	-9%
CCOC(=O)c1nn(-c2ccccc2)c(=O)c2c(NC(=O)c3cc(Cl)ccc3Cl)scc12	-12%
CCOC(=O)c1nn(-c2ccc(OC)cc2)c(=O)c2c(NC(=O)CC(C)(C)C)scc12	33%
CCOC(=O)c1nn(-c2ccccc2)c(=O)c2c(NC(=O)c3cccc(Cl)c3)scc12	-18%
CC1CCc2c(sc(NC(=O)c3ccc(S(=O)(=O)N4CCCCC4C)cc3)c2C(N)=O)C1 (stereo unspecified)	22%
c1ccc2sc(-c3c(Nc4nc5cc6c(cc5s4)OCO6)sc4c3CCCC4)nc2c1	6%
CCOC(=O)c1nn(-c2ccc(Cl)cc2)c(=O)c2c(NC(=O)CC(C)(C)C)scc12	1%
